# Screens deposited in PubChem by National Center for Advancing Translational Sciences (NCATS).
# Cruzain inh noDet: blocks cruzain activity in detergent-free assay; P25779; purified cruzain, Z-FR-AMC fluorescence, no detergent; Potency, µM, inactives show max response, negative = inhibition, actives largely listed as inhibitors; 200,000 compounds, 2.3% hits;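 also: plate controls were enzyme without inhibitor for no effect and buffer without enzyme for full effect; nearly all actives have a fitted effect of over 40% in size; top concentration of the series not given in the record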
# Target sequence (P25779 123-467 limits assumed): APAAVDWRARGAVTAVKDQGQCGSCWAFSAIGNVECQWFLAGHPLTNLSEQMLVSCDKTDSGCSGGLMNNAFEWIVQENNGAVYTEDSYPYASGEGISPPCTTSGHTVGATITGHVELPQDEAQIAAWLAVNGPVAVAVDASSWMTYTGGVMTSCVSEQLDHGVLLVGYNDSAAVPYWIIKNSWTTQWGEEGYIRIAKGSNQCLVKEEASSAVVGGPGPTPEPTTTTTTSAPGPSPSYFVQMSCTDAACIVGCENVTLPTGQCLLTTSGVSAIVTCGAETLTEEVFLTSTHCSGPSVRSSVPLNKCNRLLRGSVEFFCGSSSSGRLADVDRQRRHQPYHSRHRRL
#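 Detergent-free condition (0.00005% Triton X-100) in acetate buffer pH 5.5 with DTT. 1.5 nM enzyme and compound were pre-mixed 15 min, then 2 uM Z-FR-AMC substrate added; reaction progress from fluorescence change between first and third reads (60 s).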
# RE007 growth inh: less growth of the S. pombe RE007 Vpr strain; Potency, µM (highest dose often 92.2 µM), for inactives: at the highest dose activity change, negative = less growth; AID 651644; 360,000 compounds, 0.21% hits; S. pombe RE007 Vpr strain, BacTiter-Glo ATP luminescence, 24 h; control for the full effect not named in the record; active = well fitted falling curve with a large enough effect; inconclusive = small, poorly fitted or top-dose-only effect; inactive = no such curve, though single readings can be large or run the other way;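 also: % is scaled to controls: 0 for no effect and ±100 for the full control effect; nearly all actives have a fitted effect of over 50% in size; the assay follows cell death caused by Vpr and the record does not say whether a fall means rescue or toxicity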
#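 Fission yeast strain RE007, carrying one chromosomally integrated HIV-1 vpr copy, was seeded at OD 0.01 in PMG+AL medium with 23 nL pinned compound. After 24 h at 30 °C and 99% humidity, viability was read by BacTiter-Glo luminescence.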
# StopGo reporter: FMDV 2A StopGo reporter, luciferase signal | human cells with a luciferase reporter of 2A StopGo recoding; control for the full effect not named in the record | Potency, µM (doses to about 57.9 µM), inactives show at the top dose signal change, negative = less light | 410,000 compounds, 1.2% hits | AID 1159524; active = well fitted falling curve with a large enough effect; inconclusive = small, poorly fitted or top-dose-only effect; inactive = no such curve, though single readings can be large or run the other way; tested in HEK293T cells; also: % is scaled to controls: 0 for no effect and ±100 for the full control effect; nearly all actives have a fitted effect of over 45% in size; luciferase light after 4 h
# SARS PLP yeast: SARS-CoV PLP inhibition in yeast | 330,000 compounds, 0.19% hits | S. cerevisiae expressing SARS-CoV PLpro, growth rescue; control for the full effect not named in the record | Potency, µM (series often up to 32.9 µM), without a hit: top-dose activity, positive = growth rescue; active means well fitted rising curve with a large enough effect; inconclusive means small, poorly fitted or top-dose-only effect; inactive means no such curve, though single readings can be large or run the other way; also: 0% is about no effect; nearly all actives have a fitted effect of over 55% in size; growth read by luminescence after 48 h
# Marburg entry inh: blocks Marburg virus binding to or entry into cells; AID 540276; Potency, µM (highest dose often 37.8 µM), without a hit: top-dose activity change, negative = inhibition, actives largely listed as inhibitors; Marburg virus pseudotyped entry inhibition, cell reporter; control for the full effect not named in the record; about a third of the inactives were read at about 46 µM; 300,000 compounds, 1.8% hits; active = well fitted inhibition curve with a large enough effect; inconclusive = small, poorly fitted or top-dose-only effect, or effect the other way; inactive = flat fitted curve, though single readings scatter; tested in HEK293 cells; about a fifth of its hits are not listed in these tables; also: % is scaled to controls: 0 for no effect and ±100 for the full control effect; luciferase read-out
# Cruzain Triton: inhibitors of Trypanosoma cruzi cruzain with detergent; Potency, µM, without a hit: max response, negative = inhibition, actives largely listed as inhibitors; 200,000 compounds, 0.43% hits; purified cruzain, Z-FR-AMC fluorescence, 0.01% Triton;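 also: plate controls were neutral wells for no effect and buffer without enzyme for full effect; nearly all actives have a fitted effect of over 40% in size; top concentration of the series not given in the record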
#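 Z-FR-AMC hydrolysis (2 uM substrate) by cruzain (1.5 nM) monitored kinetically at ex 360/em 450 nm after 15 min room-temperature compound exposure; 0.01% Triton X-100, pH 5.5, 5 mM DTT.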
# LASV entry inh: Lassa virus entry inhibition; Lassa virus pseudotype entry inhibition, cell reporter; control for the full effect not named in the record; Potency, µM (highest dose often 37.9 µM), for the others: top-dose activity change, negative = inhibition, most hits filed as inhibitors; 300,000 compounds, 1.2% hits; active means well fitted inhibition curve with a large enough effect; inconclusive means small, poorly fitted or top-dose-only effect, or effect the other way; inactive means flat fitted curve, though single readings scatter; tested in HEK293 cells; also: % is scaled to controls: 0 for no effect and ±100 for the full control effect; nearly all actives have a fitted effect of over 50% in size; luciferase read-out
# NS1 inh: blocks influenza NS1 protein function. S. cerevisiae slowed by influenza A NS1, growth recovery by OD600. Potency, µM (top dose mostly 46.1 µM), for the others: at the top dose activity, positive = more growth. 270,000 compounds, 0.4% hits; active means well fitted rising curve with a large enough effect; inconclusive means small, poorly fitted or top-dose-only effect; inactive means no such curve, though single readings can be large or run the other way; also: nearly all actives have a fitted effect of over 50% in size
#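 A cell-based growth assay was used: compounds that relieve NS1-induced slow growth of budding yeast raise OD600. Assay medium was yeast nitrogen base with ammonium sulphate and -URA supplement, pH 6.0, with 2% galactose.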
# * hit, by the source's call; ? = inconclusive; / = no result given; & = joins results of further samples; [ ] = another dose, or the depositor's remark. Unless noted, calls follow the shape of the dose curve; as a rule, active = well fitted curve in the direction sought with a large enough effect; inconclusive = small, poorly fitted or top-dose-only effect, or another doubt; inactive = no such curve, though single readings can be large; an effect the other way counts as inactive or inconclusive. Potency is read from the fitted curve at half-maximal effect.
SMILES,Cruzain inh noDet,RE007 growth inh,StopGo reporter,SARS PLP yeast,Marburg entry inh,Cruzain Triton,LASV entry inh,NS1 inh
CN(C)c1ccc(S(=O)(=O)c2ccc(Cl)cc2)cc1,-9%,-8%,22%,9%,5%,-6.1%,?,1%
Cc1cc2ccccc2n1-c1ccc(C(=O)N2CCC(C(=O)NCc3ccc(Cl)cc3)CC2)s1,3%,/,?,/,/,-0.3%,-28%[46.1 µM],/
O=C1c2ccccc2-c2cc3ccccc3cc21,/,-9%,40%[activator],/,-17%,/,-29%,/
Cc1ccc(NC(=O)CCC(=O)N2CCOCC2)nc1,/,-6%,10%,4%,-6%,/,12%,/
CCC(C)[C@@H]1NC(=O)N(CCCN2CCCC2=O)C1=O (stereo not given in full),/,-6%,-13%,1%,8%,/,30%,2%
CCC(CC)c1nnc(NC(=O)CS(=O)(=O)c2ccccc2)s1,/,-12%,16%,-6%,-1%[46.1 µM],/,2%[46.1 µM],11%
CCOC(=O)C1(CCCc2ccccc2)CCN(C(=O)c2cc(C)nc(C)n2)CC1,/,-10%,2%,0%,?,/,-16%[46.1 µM],2%
CC(C)(C)NC(=O)c1cccc(NC(=O)CSc2ccccc2)c1,9%,-5%,-10%,-21%,-14%,-1.8%,-13%,-11%
O=C(NCc1ccc2c(c1)OCO2)C(=O)NCC1OCCN1S(=O)(=O)c1ccccc1 (stereo not given),/,3%,-3%,/,21%,/,?,/
CCCCCn1cnc2sc(CC)cc2c1=O,9%,6%,30%,-3%,?,2.9%,?,-14%
CCCCN1C(=S)NC[C@@H]1C(C)CC (stereo not given in full),/,1%,6%,3%,/,/,/,1%
OCCNCc1cc(Br)ccc1OCc1ccc(Cl)cc1,1%,16%,?,4%,/,-5.5%,-20%,5%
COc1ccc(C(=O)Nc2oc(-c3ccccc3)c(-c3ccccc3)c2C#N)cc1OC,-4%,0%,/,1%,-1%,-1.4%,-23%,3%
COc1ccc(S(=O)(=O)N2CCCCC2)cc1NC(=O)CCNC(=O)c1ccc(Cl)cc1,/,1%,-10%,-3%,?,/,-17%,/
COc1ccc(N2C(=S)NC(C)(C)CC2(C)c2ccc(OC(C)=O)cc2OC(C)=O)cc1 (stereo not given),/,3%,46%[activator],1%,-13%[46.1 µM],/,/,/
Cc1cc2c(NC(=O)Nc3ccc(C(C)(C)C)cc3)cccc2nn1,/,11%,?,0%,/,/,/,11%
Cc1ccc(C(=O)Cc2nc3ccccc3[nH]2)cc1,/,?,39%[activator],1%,18%[46.1 µM],/,/,-51%
CCOc1ccc(N2C(=O)CC(NC3CCN(C(=O)c4ccc(F)cc4)CC3)C2=O)cc1 (stereo not given),/,?,-11%,-20%,1%,/,?,-48%
COc1ccccc1NC(=S)N1CCN(Cc2ccc3c(c2)OCO3)CC1,-5%,/,0%,-7%,?,2.3%,3%,-15%
COc1ccc(-c2nnc(NC(=O)c3ccc(F)cc3)o2)cc1,-4%,-19%,0%,-16%,/,0.1%,/,-29%
CC(=O)c1ccc(NC(=O)Cn2nc(C(F)(F)F)c3c2CCC3)cc1,8%,/,26%,/,?,-6.0%,13%[46.1 µM],/
CCc1nnc(NC(=O)c2sc3nc4c(cc3c2N)CCCCC4)s1,15%,-7%,35%[activator],-9%,-20%,-11%,?,?
Cc1nn(-c2ccccc2)c2sc(C(=O)N3CCOCC3)cc12,10%,2%,41%[activator],7%,?,-4.9%,?,-5%
O=C(NCCO)/C(=C\c1ccco1)NC(=O)c1ccco1,/,40%,-22%,-5%,4%[46.1 µM],/,-4%[46.1 µM],-12%
COc1ccc(C(=O)NCc2cn3ccc(C)cc3n2)cc1,5%,/,-13%,/,-26%[46.1 µM],-3.8%,-4%[46.1 µM],/

# Ordered by heavy-atom count (ascending): some entries from above.
SMILES,Cruzain inh noDet,RE007 growth inh,StopGo reporter,SARS PLP yeast,Marburg entry inh,Cruzain Triton,LASV entry inh,NS1 inh
CCCCN1C(=S)NC[C@@H]1C(C)CC (stereo not given in full),/,1%,6%,3%,/,/,/,1%
CCCCCn1cnc2sc(CC)cc2c1=O,9%,6%,30%,-3%,?,2.9%,?,-14%
CN(C)c1ccc(S(=O)(=O)c2ccc(Cl)cc2)cc1,-9%,-8%,22%,9%,5%,-6.1%,?,1%
CCC(C)[C@@H]1NC(=O)N(CCCN2CCCC2=O)C1=O (stereo not given in full),/,-6%,-13%,1%,8%,/,30%,2%
O=C(NCCO)/C(=C\c1ccco1)NC(=O)c1ccco1,/,40%,-22%,-5%,4%[46.1 µM],/,-4%[46.1 µM],-12%
COc1ccc(C(=O)NCc2cn3ccc(C)cc3n2)cc1,5%,/,-13%,/,-26%[46.1 µM],-3.8%,-4%[46.1 µM],/
CC(C)(C)NC(=O)c1cccc(NC(=O)CSc2ccccc2)c1,9%,-5%,-10%,-21%,-14%,-1.8%,-13%,-11%
CC(=O)c1ccc(NC(=O)Cn2nc(C(F)(F)F)c3c2CCC3)cc1,8%,/,26%,/,?,-6.0%,13%[46.1 µM],/
COc1ccccc1NC(=S)N1CCN(Cc2ccc3c(c2)OCO3)CC1,-5%,/,0%,-7%,?,2.3%,3%,-15%
CCOC(=O)C1(CCCc2ccccc2)CCN(C(=O)c2cc(C)nc(C)n2)CC1,/,-10%,2%,0%,?,/,-16%[46.1 µM],2%
O=C(NCc1ccc2c(c1)OCO2)C(=O)NCC1OCCN1S(=O)(=O)c1ccccc1 (stereo not given),/,3%,-3%,/,21%,/,?,/
COc1ccc(S(=O)(=O)N2CCCCC2)cc1NC(=O)CCNC(=O)c1ccc(Cl)cc1,/,1%,-10%,-3%,?,/,-17%,/

# Next part
SMILES,Cruzain inh noDet,RE007 growth inh,StopGo reporter,SARS PLP yeast,Marburg entry inh,Cruzain Triton,LASV entry inh,NS1 inh
CC[C@@H](C)[C@@H](C(=O)N1CCN(C(=O)OC(C)(C)C)CC1)n1cc(CCC(=O)O)nn1,/,0%,-13%,3%,/,/,/,?
Cc1cc(NC(=O)c2ccc(-c3ccccc3F)o2)no1,/,-5%,25%,4%,?,/,-16%[46.1 µM],/
O=S1(=O)N(Cc2ccccc2Cl)CCCN1Cc1ccccc1Cl,-10%,/,10%,/,13%[46.1 µM],-4.6%,1%[46.1 µM],/
COCCCn1c(=O)c2sccc2n(Cc2ccccc2C)c1=O,/,31%,-20%,-6%,/,/,/,25%
COc1cccc(NC(=O)C2CCC(CNS(=O)(=O)c3cccc4cccnc34)CC2)c1 (stereo not given),/,16%,-17%,0%,?,/,24%[46.1 µM],5%
Cn1c(-c2ccc(F)cc2)cnc1SCC(=O)Nc1ccccc1N1CCOCC1,-29%,0%,-17%,-10%,-23%,-4.1%,0%,-6%
Cc1ccc(C)c(OCC(=O)Nc2ccc3c(c2)OCO3)c1C,-4%,-27%,0%,-8%,?,-5.0%,?,-16%
Cc1ccc2c(c1)-c1c(cnn1CC(=O)N1CCN(c3cccc(C(F)(F)F)c3)CC1)CO2,?,/,?,/,-11%[46.1 µM],-5.2%,/,/
COc1ccc(OCC(=O)Nc2ccc(-c3nc4cc(Cl)ccc4o3)cc2)cc1,4%,/,41%[activator],/,/,6.7%,2%[46.1 µM],/
CC1CCCCC1NC(=O)CN1C(=O)COc2ccccc21 (stereo not given),/,15%,-25%,0%,/,/,/,11%
COC(=O)Nc1nc2c(C)cccc2s1,-7%,6%,16%,2%,?,2.9%,0%,-18%
N#CCCN(C(=O)CSc1nc(-c2ccccc2)cn1N)c1ccc(F)cc1,-3%,-16%,-4%,-4%,6%,-3.1%,-6%,6%
Cc1[nH]n(-c2ccccc2)c(=O)c1/C=N\NC(=O)C1COc2ccccc2O1 (stereo not given),4%,-11%,?,10µM*,?,0.9%,?,-10%
COc1ccccc1CNC(=O)CCc1c(C)c2cc3c(C)coc3cc2oc1=O,-3%,/,13%,/,3%[46.1 µM],-2.4%,-24%[46.1 µM],/
Cc1ccc2c(c1)c1c(c(=O)n(-c3cccc(Cl)c3)c(=O)n1CC(=O)NCC1CCCO1)n2C (stereo not given),15%,/,-1%,/,/,0.0%,17%[46.1 µM],/
CCNc1ccc(C(=O)NN=C2CCCC2)cc1[N+](=O)[O-],/,7%,-7%,1%,-12%[46.1 µM],/,?,/
CCC(C(=O)OC)(C(=O)OC)c1ccc([N+](=O)[O-])cc1,/,-1%,-17%,-1%,-6%[46.1 µM],/,-4%[46.1 µM],/
COCCn1nnnc1C(C(C)C)N(Cc1ccccc1)Cc1cc2cc(OC)ccc2[nH]c1=O (stereo not given),?,2%,0%,4%,-7%&-7%[46.1 µM],-5.9%,?,-7%
NCCc1nc2cccnc2n1-c1ccccc1,0%,/,-22%,/,/,0.5%,?,/
S=c1[nH]nc(-c2ccc3ccccc3n2)n1-c1ccc2c(c1)OCCO2,/,-3%,-5%,3%,0%,/,-1%,2%
CCOC(=O)C1CCN(C(=O)c2ccc3c(SCC(=O)O)c4c(nc3c2)CCCC4)CC1,/,0%,-12%,1%,5%[46.1 µM],/,?,/
CCOC(=O)N1CCN(S(=O)(=O)c2ccc(C)cc2)CC1,/,2%,-9%,-1%,14%,/,2%,-12%
COc1ccc2c(C)cc(SCC(=O)Nc3ccc(Cl)cn3)nc2c1,?,1%,-11%,8%,-14%,-1.1%,2%,6%
Cc1ccc(-c2n[nH]c(=S)n2-c2ccccc2)cc1,-5%,18%,-22%,13%,5%,-1.4%,0%,-2%
O=C(NC1CCCc2c1cnn2-c1cc(F)cc(F)c1)c1ccccn1 (stereo not given),/,-17%,7%,/,?,/,?,/
COc1ccc(OC)c(NC(=O)CSc2nc3c(c(=O)n(C)c(=O)n3C)n2C)c1,-3%,-5%,/,4%,-4%,2.7%,1%,-5%

# Hits appear at their usual frequency; about 4.8% have a hit in one of these screens.
